Compound activity (PubChem)
RE007 growth inh: less growth of the S. pombe RE007 Vpr strain; AID 651644; 360,000 compounds, 0.21% hits; Potency, µM (highest dose often 92.2 µM), for the others: at the top dose activity change, negative = less growth; S. pombe RE007 Vpr strain, BacTiter-Glo ATP luminescence, 24 h; control for the full effect not named in the record; active = well fitted falling curve with a large enough effect; inconclusive = small, poorly fitted or top-dose-only effect; inactive = no such curve, though single readings can be large or run the other way;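 also: % is scaled to controls: 0 for no effect and ±100 for the full control effect; nearly all actives have a fitted effect of over 50% in size; the assay follows cell death caused by Vpr and the record does not say whether a fall means rescue or toxicity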
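Fission yeast RE007 carrying one integrated HIV-1 vpr copy, seeded at OD 0.01 in PMG+AL medium with 23 nL pinned compound. Grown 24 h at 30 degrees; viability read by BacTiter-Glo luminescence after 5 min.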
NS1 inh: influenza NS1 inhibition; S. cerevisiae slowed by influenza A NS1, growth recovery by OD600; Potency, µM (titrated, usually from 46.1 µM), without a hit: top-dose activity, positive = more growth; 270,000 compounds, 0.4% hits; also: actives are rising curves; nearly all actives have a fitted effect of over 50% in size
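Compounds were scored for reversing the slow growth caused by influenza A NS1 in S. cerevisiae, measured by optical density at 600 nm. Assay medium contained 2% galactose at pH 6.0; NS1-free yeast of the same strain were the positive control.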
LASV entry inh: blocks Lassa virus binding to or entry into cells | Lassa virus pseudotype entry inhibition, cell reporter; control for the full effect not named in the record | Potency, µM (highest dose often 37.9 µM), for the others: top-dose activity change, negative = inhibition, most hits filed as inhibitors | 300,000 compounds, 1.2% hits; active means well fitted inhibition curve with a large enough effect; inconclusive means small, poorly fitted or top-dose-only effect, or effect the other way; inactive means flat fitted curve, though single readings scatter; tested in HEK293 cells; also: % is scaled to controls: 0 for no effect and ±100 for the full control effect; nearly all actives have a fitted effect of over 50% in size; luciferase read-out
Marburg entry inh: inhibitors of Marburg virus binding or cell entry; Marburg virus pseudotyped entry inhibition, cell reporter; control for the full effect not named in the record; about a third of the inactives were read at about 46 µM; 300,000 compounds, 1.8% hits; Potency, µM (highest dose often 37.8 µM), for the others: at the highest dose activity change, negative = inhibition, hits mostly inhibitors; AID 540276; active = well fitted inhibition curve with a large enough effect; inconclusive = small, poorly fitted or top-dose-only effect, or effect the other way; inactive = flat fitted curve, though single readings scatter; tested in HEK293 cells; about a fifth of its hits are not listed in these tables; also: % is scaled to controls: 0 for no effect and ±100 for the full control effect; luciferase read-out
Cruzain noTriton: blocks cruzain activity in detergent-free assay. 200,000 compounds, 2.3% hits. purified cruzain, Z-FR-AMC fluorescence, no detergent. P25779. Potency, µM, inactives show max response, negative = inhibition, most hits filed as inhibitors; active = well fitted curve in the direction sought with a large enough effect; inconclusive = small, poorly fitted or top-dose-only effect, or another doubt; inactive = no such curve, though single readings can be large; an effect the other way counts as inactive or inconclusive;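 also: plate controls were enzyme without inhibitor for no effect and buffer without enzyme for full effect; nearly all actives have a fitted effect of over 40% in size; top concentration of the series not given in the record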
Target sequence (P25779 123-467 limits assumed): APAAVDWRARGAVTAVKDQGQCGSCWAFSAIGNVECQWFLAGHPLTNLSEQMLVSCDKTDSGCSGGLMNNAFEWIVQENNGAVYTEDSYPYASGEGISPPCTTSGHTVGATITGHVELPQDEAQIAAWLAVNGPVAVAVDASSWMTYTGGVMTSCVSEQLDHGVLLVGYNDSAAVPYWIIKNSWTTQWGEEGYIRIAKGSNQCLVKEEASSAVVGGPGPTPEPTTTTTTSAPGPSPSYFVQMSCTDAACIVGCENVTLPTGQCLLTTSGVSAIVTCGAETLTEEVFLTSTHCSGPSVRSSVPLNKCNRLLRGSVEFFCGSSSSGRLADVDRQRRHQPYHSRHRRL
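Purified cruzain at 1.5 nM, pre-incubated 15 min with compound at room temperature in 100 mM sodium acetate pH 5.5, 5 mM DTT, 0.00005% Triton X-100. Reaction started with 2 uM Z-FR-AMC; AMC fluorescence increase over 60 s gives rate.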
2A StopGo: lowers the luciferase signal of an FMDV 2A StopGo reporter; human cells with a luciferase reporter of 2A StopGo recoding; control for the full effect not named in the record; Potency, µM (highest dose often 57.9 µM), for inactives: at the highest dose signal change, negative = less light; 410,000 compounds, 1.2% hits; AID 1159524; active = well fitted falling curve with a large enough effect; inconclusive = small, poorly fitted or top-dose-only effect; inactive = no such curve, though single readings can be large or run the other way; tested in HEK293T cells; also: % is scaled to controls: 0 for no effect and ±100 for the full control effect; nearly all actives have a fitted effect of over 45% in size; luciferase light after 4 h
Cruzain Triton: inhibitors of Trypanosoma cruzi cruzain with detergent; P25779; purified cruzain, Z-FR-AMC fluorescence, 0.01% Triton; 200,000 compounds, 0.43% hits; Potency, µM, inactives show max response, negative = inhibition, usual class: inhibitors; active = well fitted curve in the direction sought with a large enough effect; inconclusive = small, poorly fitted or top-dose-only effect, or another doubt; inactive = no such curve, though single readings can be large; an effect the other way counts as inactive or inconclusive;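 also: plate controls were neutral wells for no effect and buffer without enzyme for full effect; nearly all actives have a fitted effect of over 40% in size; top concentration of the series not given in the record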
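Compounds were screened in titration against cruzain (1.5 nM) with 0.01% Triton X-100 to counter colloidal aggregation. Activity was the AMC fluorescence increase over 60 s after adding 2 uM Z-FR-AMC at pH 5.5.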
SARS PLpro yeast: SARS-CoV PLP inhibition in yeast. Potency, µM (series often up to 32.9 µM), inactives show at the top dose activity, positive = growth rescue. S. cerevisiae expressing SARS-CoV PLpro, growth rescue; control for the full effect not named in the record. 330,000 compounds, 0.19% hits; also: 0% is about no effect; nearly all actives have a fitted effect of over 55% in size; growth read by luminescence after 48 h
The depositor's hits bear a star; ? = inconclusive; / = no result given; [ ] = another dose, or the depositor's remark. Unless noted, calls follow the shape of the dose curve; as a rule, active means well fitted rising curve with a large enough effect; inconclusive means small, poorly fitted or top-dose-only effect; inactive means no such curve, though single readings can be large or run the other way. Potency is read from the fitted curve at half-maximal effect.

SMILES | RE007 growth inh | NS1 inh | LASV entry inh | Marburg entry inh | Cruzain noTriton | 2A StopGo | Cruzain Triton | SARS PLpro yeast
CCNc1c(NS(=O)(=O)c2ccc(OC)c(Cl)c2)c(=O)oc2ccccc12 | -6% | 10% | / | / | / | -25% | / | -12%
COC(=O)c1c(NC(=O)Cc2cccs2)sc(C(=O)N2CCCCC2)c1C | -11% | -42% | ? | 2% | -8% | -9% | -4.6% | -10%
Cc1nnc2n1NC(c1ccc(Cl)cc1)C(C(=O)N(C)C1CCCCC1)S2 (configuration not stated) | 55% | -1% | 18% | 1% | 3% | 11% | -1.2% | 2%
Cc1sc(NC(=O)C2CCCCC2C(=O)O)c(C(N)=O)c1C (configuration not stated) | 16% | -3% | -3% | -4% | 6% | 30%[activator] | 2.3% | -1%
CN(C)S(=O)(=O)c1cccc(NC(=O)CCc2nc3cc(S(=O)(=O)N4CCOCC4)ccc3n2C)c1 | -4% | / | 6% | 10% | / | -14% | / | 1%
COc1cc(NC(=O)Cc2ccccc2)ccc1NC(=O)Cc1ccccc1 | -9% | 4% | / | / | / | -3% | / | 26%
COc1ccc(C(=O)CSc2nnn(-c3cccc(NC(C)=O)c3)n2)cc1 | 3% | 2% | -2% | -12%[46.1 µM] | / | -5% | / | 0%
COc1ccc(OC)c(S(=O)(=O)NCC(=O)O)c1 | -10% | -14% | / | / | / | 0% | / | -2%
COC(=O)COc1ccc(S(=O)(=O)NCc2ccc3c(c2)OCO3)cc1 | 4% | 2% | / | / | / | 4% | / | 10%
CCOC(=O)c1cnc2c(C)c(Cl)ccc2c1Nc1ccc(N2CCOCC2)cc1 | / | / | 14%[46.1 µM] | -11%[46.1 µM] | -5% | -25% | -1.1% | /
Cc1cc(=O)n2c(C)n[nH]c2n1 | -1% | -14% | 2% | 0% | -6% | -11% | 3.0% | 3%
COc1cc(OC)c(OC)cc1/C=C/c1nc2cc3ccccc3cc2c(=O)n1-c1ccccc1Br | / | / | -5%[46.1 µM] | / | 6% | -18% | 0.8% | /
O=C(CN1C2CCCC1CC(NC(=O)C1CCCCC1)C2)Nc1ccccc1 (configuration not stated) | -15% | 1% | 1%[46.1 µM] | ? | / | -2% | / | -1%
COc1cc(/C=N/NC(=O)c2cc(C34CC5CC(CC(C5)C3)C4)[nH]n2)ccc1O | 37% | -4% | -3% | -20% | 11% | ? | -2.6% | -3%
O=C(C1CCCO1)N1CCN(C(=S)Nc2cccc(Cl)c2)CC1 (configuration not stated) | / | -10% | ? | ? | -3% | -6% | 0.1% | 13%
COc1ccc(N(CC(=O)NCc2ccco2)C(=O)CCC(=O)Nc2ccccn2)cc1 | -8% | 6% | ? | 20%[46.1 µM] | / | 2% | / | -13%
O=C(NCC1CCCO1)c1ccccn1 (configuration not stated) | -18% | 6% | 1% | 0% | 24% | 11% | -1.2% | 3%
COc1ccc(OCc2cc(C(=O)N(Cc3nccn3C)C(C)C)no2)c2ccccc12 | -8% | -29% | / | / | / | 24% | / | -3%
Cc1cc(NC(=O)C(C)Oc2ccc(Cl)cc2Cl)no1 (configuration not stated) | 21% | -38% | -18%[46.1 µM] | 8%[46.1 µM] | / | 19% | / | -38%
Cc1ccccc1Nc1nnc(SCC(=O)NCc2cccs2)s1 | 9% | -3% | -13% | -2% | -5% | -15% | -7.6% | -2%
O=C(COC(=O)C12CC3CC(CC(Br)(C3)C1)C2)Nc1cccnc1Cl | -4% | -6% | -20% | -6% | / | -23% | / | 1%
CC(=O)C1(O)CCC2C3CCC4CC(O)CCC4(C)C3C(=O)CC21C (configuration not stated) | 13% | / | 24% | 8% | / | -21% | / | /
Cc1nc(Nc2ccccc2)sc1-c1ccccc1 | 35µM* | -5% | ? | ? | -8% | 0% | -16% | -54%
COc1cc(/C=N/NC(=S)NCc2ccccc2)ccc1OCC#N | -5% | 16% | ? | ? | ? | 0% | -12% | -2%
CC(=O)c1ccc(NC(=O)c2ccc(C)c(S(=O)(=O)N3CCOCC3)c2)cc1 | -19% | 3% | 0% | ? | / | ? | / | 8%
Carrying on.
SMILES | RE007 growth inh | NS1 inh | LASV entry inh | Marburg entry inh | Cruzain noTriton | 2A StopGo | Cruzain Triton | SARS PLpro yeast
CC(=O)NC(Cc1ccccc1)C(=O)OCC(=O)c1ccc(Cl)cc1 (configuration not stated) | 0% | -18% | 2% | 1% | 21% | 0% | 0.0% | 3%
COc1nnc(-c2ccc(N3CCCCC3)c(NC(=O)c3ccc(Cl)cc3)c2)c2ccccc12 | / | / | 2%[46.1 µM] | -1%[46.1 µM] | 2% | ? | 1.0% | /
CCn1c(SCC(=O)Nc2nccc(C)n2)nc2ccccc21 | 5% | -2% | -2% | -8% | / | 52%[activator] | / | 1%
CCCn1c(N)c(N(CCOC)C(=O)c2cc3c(s2)CCC(CC)C3)c(=O)[nH]c1=O (configuration not stated) | 6% | / | -1% | 13% | / | -13% | / | 7%
CC(C)C(=O)Nc1nnc(SCC(=O)NCc2ccc3c(c2)OCO3)s1 | 4% | 1% | / | 12%[46.1 µM] | / | 25% | / | -1%
CCCCC[C@H]1CN(Cc2ccccc2)C(=O)[C@@H]1CC(=O)NCc1ccccc1 | 9% | -70% | / | / | / | -12% | / | 0%
CCCCN(C)c1c(N2CCC(C(=O)OCC)CC2)c(=O)c1=O | 13% | -6% | / | / | / | -2% | / | -3%
Cc1onc(-c2c(F)cccc2Cl)c1C(=O)OCC(=O)Nc1cccc(S(=O)(=O)N(C)C)c1 | -13% | / | ? | 16µM* | / | ? | / | /
CC(=O)N1Cc2ccccc2C(C)CC12CCCC2 (configuration not stated) | 3% | -5% | -11% | -7% | 0% | 25µM* | -0.8% | 5%
CC1Cc2nc(SCC(=O)Nc3nccs3)n(Cc3ccccc3)c(=O)c2S1 (configuration not stated) | 9% | 20µM* | / | / | ? | 32%[activator] | -9.3% | 16%
COC1(OC)C(/C=C/c2ccc(C)cc2)C(C#N)(C#N)C1(OC)OC (configuration not stated) | -6% | / | ? | ? | / | 22µM* | / | /
O=C1/C(=C\c2cccs2)N=C(c2cccs2)N1Nc1ccccc1 | 1% | 5% | -4% | -6% | ? | / | -2.1% | -15%
COc1ccccc1N1CCN(C(=O)Cn2c(=O)nc(-c3ccccc3)c3ccccc32)CC1 | / | / | 11%[46.1 µM] | / | -6% | ? | -1.9% | /
O=C(CSc1nnc(NC2CCCCC2)s1)NC1CCS(=O)(=O)C1 (configuration not stated) | -5% | 5% | 35% | 8% | 2% | 5% | 3.0% | 4%
O=C1C(Cl)=C(Nc2ccccc2O)C(=O)N1CCc1ccccc1 | / | -9% | ? | ? | -7% | 17% | -12% | -76%
Cc1cc(=O)cc(C)n1-c1ccccc1N | -1% | 0% | / | / | / | 2% | / | -5%
CN(C)CCOC(=O)C12CC3CC(CC(C3)C1)C2 | 16% | -8% | 13% | -15% | 8% | -20% | 4.1% | -1%
COc1ccc(CNC(=O)COc2ccc(S(=O)(=O)N3CCOCC3)cc2C)cc1 | -6% | -9% | -6% | ? | / | ? | / | -2%
Clc1ccc(-c2noc3ncnc(NCCc4ccccc4)c23)cc1 | / | / | 4µM* | / | -1% | -9% | -6.0% | /
CCc1ccccc1-n1c(N)c(C(=O)OC)c2nc3ccccc3nc21 | / | / | -16%[46.1 µM] | ? | 3% | -12% | -19% | /
CN1CCN(c2oc(-c3ccc(COc4ccc(Cl)cc4)o3)nc2C#N)CC1 | / | / | ? | -6%[46.1 µM] | -6% | ? | -6.9% | /
S=C(Nc1ccc2c(c1)OCO2)Nc1ccccc1Cl | 9% | 1% | / | -3% | / | 11% | / | -2%
COc1cccc(-n2c(=O)c3sccc3n(CC(=O)NC3CCCC3)c2=O)c1 | -18% | -10% | -4% | 8%[46.1 µM] | / | 0% | / | -2%
O=C(CSCc1cnn(-c2ccccc2)c1-n1cccc1)NCc1ccccc1F | / | / | -20%[46.1 µM] | 0%[46.1 µM] | ? | -15% | -4.3% | /
COc1ccc(NC(=O)CC2C(=O)N(c3ccccc3)C(=O)N2CCc2cccs2)cc1 (configuration not stated) | 9% | -13% | ? | -9% | 7% | 13% | -3.5% | -5%
Continued.
SMILES | RE007 growth inh | NS1 inh | LASV entry inh | Marburg entry inh | Cruzain noTriton | 2A StopGo | Cruzain Triton | SARS PLpro yeast
Cc1cc(C2C(=O)CC(=O)CC2c2ccccc2)on1 (configuration not stated) | 15% | ? | -5% | 12% | -10% | -1% | 0.0% | -1%
Cc1ccc(-n2c(SCC(=O)Nc3ccc4c(c3)OCCO4)nc3c([nH]c4ccccc43)c2=O)cc1 | / | / | -3%[46.1 µM] | / | 25µM* | 22% | -7.1% | /
CC1=C(CC(=O)c2ccc(Cl)cc2)C(=O)c2ccccc2C1=O | -21% | 29% | -27% | 5% | -21% | 4% | -5.2% | -14%
CC(Sc1ccc(Cl)cc1)C(=O)NNC(=O)c1csc(N2CCOCC2)n1 (configuration not stated) | 6% | 15% | 3% | -4% | / | -26% | / | -4%
OCCC1CN(C/C(Cl)=C/c2ccccc2)CCN1C1CCCC1 (configuration not stated) | 1% | -1% | -17% | 10%[46.1 µM] | / | -1% | / | -1%
CC(C)COc1ccc(C(=O)Nc2cccc(-c3nc4ccccc4[nH]3)c2)cc1 | / | / | -12%[46.1 µM] | / | ? | ? | -2.8% | /
Cc1csc(NC(=O)c2ccc(S(C)(=O)=O)cc2)n1 | -8% | / | / | 5%[46.1 µM] | / | 11% | / | -2%
CCOc1ccccc1N(CC(=O)N1CCOCC1)S(=O)(=O)c1ccccc1 | -4% | -25% | -1% | -18% | 7% | 83%[activator] | 4.9% | 2%
COc1ccc(NC(=O)C2CCCN(S(=O)(=O)c3ccc4c(c3)CCCC(=O)N4)C2)cc1OC (configuration not stated) | / | / | ? | / | 4% | ? | -1.8% | /
CCOC(=O)C1(CCc2ccccc2)CCN(C2CCSCC2)CC1 | -2% | 7% | ? | 10µM* | / | -14% | / | 2%
